HCMV UL50-53 inh: inhibitors of HCMV UL50-UL53 interaction, biochemical, HTRF. HCMV UL50-UL53 nuclear egress complex (human cytomegalovirus). normalized percent inhibition. inhibition, % (no concentration beside the values). 0.15% of 190,000 active. AID 1918969, 2023;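 active = both replicates at 50% or more, plus weaker picks with an unusually low signal ratio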;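 also: stock transfer was 100 nL into about 20 µL; 0% = negative control wells and 100% = wells with untagged competitor protein; inactives centre near -12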
Sa growth 42C: S. aureus growth inhibition at 42 and 30 °C, primary screen, LtaS inhibitor project, RN4220, two temperatures | 0.53% of 170,000 active | OD600, 20 h, 42 °C; active compounds read low | relative growth, % (no concentration beside the values);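 active = growth at 42 °C up to 50% and 20 or more points under that at 30 °C, or under 10% at both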;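 also: 300 nL library stock went into each well; scaled to the means of positive and negative controls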
GIV Gai3 FP: inhibitors of GIV peptide binding to Galpha-i3, primary screen, biochemical, fluorescence polarization, FITC-GIV GBA peptide, rat Galphai3. Guanine nucleotide-binding protein G(i) subunit alpha-3 (Rattus norvegicus), P08753. percent of control (FP), % (no concentration beside the values). 90 min; active compounds read low; scaled: aluminum fluoride 0%, vehicle 100%. 0.42% of 210,000 active;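 active = replicate mean at 85% of control or lower, very high polarization wells dropped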;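 also: wells of about 15 µL received 100 nL stock; the first replicate is given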
Target sequence (P08753 whole entry, looked up): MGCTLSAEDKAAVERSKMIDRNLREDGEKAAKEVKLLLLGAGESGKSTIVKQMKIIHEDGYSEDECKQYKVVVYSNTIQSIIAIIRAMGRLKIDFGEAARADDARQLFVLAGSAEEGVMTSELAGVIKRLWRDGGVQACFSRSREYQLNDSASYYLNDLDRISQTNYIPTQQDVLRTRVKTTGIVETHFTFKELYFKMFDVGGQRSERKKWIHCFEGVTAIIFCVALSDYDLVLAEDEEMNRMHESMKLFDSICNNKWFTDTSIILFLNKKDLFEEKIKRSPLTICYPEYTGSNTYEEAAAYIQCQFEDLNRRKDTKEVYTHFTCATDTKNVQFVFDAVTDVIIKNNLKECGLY
Sa growth 42C second temp: also measured in Sa growth 42C; calls as there; relative growth, %; measured here: growth at 30 °C;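 optical density after 20 h as mean of two plates; 100% = untreated growth and lower means inhibition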
An asterisk follows results filed as active; . = no result given. Hits appear at their usual frequency; overall some 0.79% were active at least once.

compound,HCMV UL50-53 inh,Sa growth 42C,Sa growth 42C second temp,GIV Gai3 FP
CC1CCC2[C@](C)(CO)[C@@H](O)CC[C@]2(C)[C@@]12CCC1(CCOC1)O2 (stereo partly specified),-14,99,85,110
O=C(O)C1CCCCN1Cc1ccco1 (stereo unspecified),-14,90,93,100
COCCCNC(=O)CN1C(=O)CSc2ccc(S(=O)(=O)N3CCOCC3)cc21,.,95,100,104
O=S(=O)(CCN1CCOCC1)c1ccc(F)cc1,-10,100,94,103
N#CC(C(=O)N1CCCCC1)C(CC(=O)c1ccccc1)c1cccc(Br)c1 (stereo unspecified),-11,77,52,.
CC(C)(C)c1ccc(-c2noc(-c3ccno3)n2)cc1,-1,99,87,100
O=C(N/N=C/c1ccccc1O)c1c[nH]c2ccccc12,-12,63,66,.
Cc1noc(C)c1COC(=O)CN(C)S(=O)(=O)c1ccc(Cl)cc1,-6,101,88,.
Cc1ccc(S(=O)(=O)Cc2ccc(C(=O)N3CCN(c4cccc(Cl)c4)CC3)o2)cc1,-12,101,56,101
COc1cccc(-c2nn(Cc3ccc(C)cc3)c(=O)c3noc(C)c23)c1,-44,.,.,123
CCN1Cc2cccc(CNc3cc(C)cc(C)c3)c2C1,.,88,72,105
CCN(C(=O)c1ccco1)C1C2CC3CC(C2)CC1C3 (stereo unspecified),-28,101,107,109
Cc1onc(-c2ccccc2)c1C(=O)NCc1cc(Cl)cc(Cl)c1,-9,83,90,106
CC1CCc2c(sc3nc(-c4ccc(Cl)cc4)cn23)C1 (stereo unspecified),2,108,89,109
CCN(CC)S(=O)(=O)N1CCC(C(=O)N2CCCCCC2)CC1,4,91,84,106
CC(=O)Oc1cccc2ccc(C#N)nc12,-105,133,101,87
CCOc1ccc(N(CC(=O)Nc2ccccc2CC)S(=O)(=O)c2c(C)noc2C)cc1,-35,91,91,103
COc1ccccc1-c1c(C(F)(F)F)oc2cc(OC(=O)c3ccco3)ccc2c1=O,2,.,.,105
O=C(NC1CC1)c1cc(Cl)cc(Cl)c1,.,94,85,96
COC(=O)C1CCc2ccccc2N1 (stereo unspecified),-6,62,80,102
CC1CCN(C(=O)c2ccc3c(=O)n4c(nc3c2)CCCC4)CC1,-24,.,.,107
O=C(Nc1ccc(N2CCN(C(=O)c3ccco3)CC2)cc1)c1ccccc1,5,91,79,106
COc1cccc2c1Oc1ncccc1N(c1ccc(C(=O)NCc3ccccc3C)s1)C2,.,105,94,101
CCCn1c(=O)c2sccc2n2c(CCCC(=O)NCCOC)nnc12,.,110,87,97
N#Cc1ccc(CSc2cnc3ccccc3n2)cc1,-28,117,97,105
COc1ccc(-c2nc3cc(NC(=O)c4ccc(C)cc4)ccc3o2)cc1Cl,-14,104,95,105
CCOC(=O)c1cc(Sc2n[nH]c(-c3ccccc3)n2)cc(C(=O)OCC)n1,-8,99,96,99
COc1ccc(CNC(=O)CCCN2C(=O)CSc3c2c(C)nn3-c2ccccc2)c(OC)c1,.,102,89,104
O=C(Nc1c[nH]c(=O)[nH]c1=O)C(c1ccccc1)c1ccccc1,-16,95,81,104
Nn1c(SCC(=O)Nc2cccc(Br)c2)nnc1C(F)(F)F,-25,90,83,.
COc1ccc(CC(=O)NC(=S)Nc2cccnc2Cl)cc1,.,105,89,109
N=c1c2c3c(sc2ncn1CCCO)CCCCC3,-18,95,85,103
N#C/C(=N/Nc1ccc2c(c1)OCO2)C(=O)N1CCCC1,-51,95,79,105
COc1ccc(NC(=O)c2ncoc2-c2ccco2)cc1Cl,.,97,96,105
O=C(Nc1nc(=O)c2ccccc2s1)c1ccccc1,.,90,93,103
N#Cc1cccc(NC(=O)COc2ccccc2C(N)=O)c1,0,100,100,.
COc1ccccc1-c1c(C)nn2c(SCC(=O)NCc3ccc4c(c3)OCO4)cc(C)nc12,.,107,91,101
Cn1c(=O)[nH]c(=O)c2c1ncn2CC(O)CO (stereo unspecified),-8,83,80,94
CC(=O)N1CN(C2CCS(=O)(=O)C2)Cc2c1sc1c2CCCC1 (stereo unspecified),.,117,94,101
Cc1ccc(C(=O)O)cc1NCc1ccccn1,-9,95,97,101
FC(F)(F)c1nnc2sc(-c3cc4ccccc4[nH]3)nn12,1,.,.,101
O=c1c2sccc2n2c(SCc3cccc(Cl)c3)nnc2n1CC1CCCO1 (stereo unspecified),-10,.,.,100
COc1ccc2[nH]cc(CCN=C(NC(=O)c3ccccc3OC)Nc3nc(C)cc(C)n3)c2c1,-8,78,77,105
COC(=O)c1cc2oc3ccccc3c2n1CC(=O)Nc1ccccc1OC,-14,99,87,98
Cn1c2c(c(=O)[nH]c1=O)C(NC(=O)c1ccccc1)(C(F)(F)F)C(=O)N2 (stereo unspecified),-8,103,96,104
COc1cc(/C=C/C(=O)Nc2nnc(C)s2)cc(OC)c1OC,5,107,110,107
Cc1nnc(Sc2cnn(-c3ccccc3)c(=O)c2Cl)n1C,-83,75,91,.
Cc1oc(C(C)(C)C)cc1C(=O)N1CCCC1C(=O)O (stereo unspecified),0,107,102,.
Cc1cc(NC(=O)c2cnn3c(C(F)(F)F)cc(-c4ccccc4)nc23)no1,-26,89,71,110
CNC(=O)NC(=O)C(Sc1cccc[n+]1[O-])c1ccccc1 (stereo unspecified),-12,86,96,.
CCOC(=O)c1c(C)nsc1Nc1cc(C)ccc1C,.,94,87,100
CCOC(=O)c1cccc(OCC(O)CN(C)Cc2ccc(C)o2)c1 (stereo unspecified),-21,73,84,.
Cc1noc(C)c1C(=O)N1CCC(C(O)(c2ccccc2)c2ccccc2)CC1,-7,86,84,102
O=C(NN=C1CCCCC1)c1n[nH]c2c1CCC2,7,69,93,108
Cc1cc(NC(=O)COC(=O)/C=C/c2ccccc2Cl)no1,-20,107,91,.
C=CCc1cccc2cc(-c3nc4ccc(C)cc4[nH]3)c(=O)oc12,.,109,80,102

(more compounds)
compound,HCMV UL50-53 inh,Sa growth 42C,Sa growth 42C second temp,GIV Gai3 FP
COc1ccc(NC(=O)N2CCC(n3c(C)nc4cccnc43)CC2)cc1OC,.,102,93,99
O=C(O)c1ccc2c(c1)C(=O)N(CCC1=CCCCC1)C2=O,.,98,85,108
O=C(CNc1cccc(C(F)(F)F)c1)NN=C1CCCCC1,-12,110,99,.
COc1cccc(NC(=O)C(Cc2ccccc2)NS(=O)(=O)c2ccc3c(c2)c(=O)n(C)c(=O)n3C)c1 (stereo unspecified),-17,105,88,99
CCOc1ccc(CC(=O)N2CCc3cc(OC)c(OC)cc3C2COc2ccc3c(C)cc(=O)oc3c2)cc1 (stereo unspecified),-8,105,99,104
CCC1Cn2c(C(=O)N3CCN(c4ncccn4)CC3)cc3cccc(c32)O1 (stereo unspecified),-9,.,.,110
Cc1ccc(-n2nc(C)c3nc(CCC(=O)Nc4ccc(F)cc4)c(=O)n(C)c32)cc1,.,109,91,107
Cn1c2c(c(=O)n(C)c1=O)C(c1cc3c(cc1Br)OCO3)CC(=O)N2 (stereo unspecified),2,112,92,107
O=C(Nc1ccc(C23CC4CC(CC(C4)C2)C3)cc1)c1cccs1,.,92,86,99
O=c1c2ccccc2c(-c2ccccc2)nn1-c1cc([N+](=O)[O-])ccc1N1CCN(CCO)CC1,-66,.,.,108
CC(CO)(CO)N=Cc1c(O)n(-c2ccc(Br)cc2)c(=O)[nH]c1=O,-2,.,.,114
Cc1cccc(NC(=O)c2cc3c(=O)n(Cc4ccco4)ccc3nc2C)c1,.,77,87,93
OC(CN1CCCCC1)Cn1c2c(c3ccccc31)CCCC2 (stereo unspecified),-15,100,89,101
Cc1nc(N(C)C)cc(N2CCN(C(=O)Nc3ccc(F)cc3)CC2)n1,-11,.,.,97
CCOC(=O)c1cccc(NC(=O)CCn2c(-c3ccc(F)cc3)cc(C(=O)OCC)c2C)c1,.,115,90,102
NC(=O)C[n+]1ccc(C(N)=O)cc1,-59,93,86,102

Part of the list above, with values under each structure.
Second line of a record – HCMV UL50-53 inh	Sa growth 42C	Sa growth 42C second temp	GIV Gai3 FP
O=c1c2ccccc2c(-c2ccccc2)nn1-c1cc([N+](=O)[O-])ccc1N1CCN(CCO)CC1
    -66	.	.	108
CC(CO)(CO)N=Cc1c(O)n(-c2ccc(Br)cc2)c(=O)[nH]c1=O
    -2	.	.	114

Remaining list, next part:
compound,HCMV UL50-53 inh,Sa growth 42C,Sa growth 42C second temp,GIV Gai3 FP
CN(CC(=O)N1CCN(Cc2ccccc2)CC1)S(=O)(=O)c1cnc[nH]1,-9,103,86,105
O=C(c1ccc(-n2cccn2)cc1)N1CCCC1c1ccc2c(c1)OCCCO2 (stereo unspecified),17,104,103,.
Cc1cccc(C)c1NC(=O)CSc1nc(-c2ccccc2)nc2c1Cc1c(CO)cnc(C)c1O2,.,116,110,106
CCOC(=O)N1CCN(CC(O)COCc2ccc(Cl)cc2)CC1 (stereo unspecified),.,86,85,106
OCc1cc(Cl)cc(Cl)c1,-6,.,.,98
CC(NC(=O)Nc1ccccc1Br)(C(F)(F)F)C(F)(F)F,0,97,81,.
CC1(C)C2CCC(C2)C1(C)NC(=S)NCC1CCCO1 (stereo unspecified),-15,107,83,99
O=C(Nc1ccccc1Cl)N1CCC(n2cnc3cccnc32)CC1,23,.,.,105

Only GIV Gai3 FP and Sa growth 42C second temp (three entries from above):
smiles | GIV Gai3 FP | Sa growth 42C second temp
Cc1cccc(C)c1NC(=O)CSc1nc(-c2ccccc2)nc2c1Cc1c(CO)cnc(C)c1O2 | 106 | 110
CCOC(=O)N1CCN(CC(O)COCc2ccc(Cl)cc2)CC1 (stereo unspecified) | 106 | 85
OCc1cc(Cl)cc(Cl)c1 | 98 | .

(list continues)
compound,HCMV UL50-53 inh,Sa growth 42C,Sa growth 42C second temp,GIV Gai3 FP
COc1ccc(OC)c(NC(=O)N2CCN(c3nnc(C)c4c(C)n(-c5ccccc5)nc34)CC2)c1,-9,.,.,102
COC(=O)c1ccccc1NC(=O)CCc1ccc(OC)cc1,-15,91,85,.
CCc1ccc(CNC(=O)c2cc3c(=O)oc4ccc(C)cc4c3s2)cc1,-30,106,91,102
Cc1ccc(C(=O)NCCC2=CCCCC2)cc1,-15,84,88,.
O=C(c1csc(S(=O)(=O)Nc2cccnc2)c1)N1CCCC1,-6,.,.,107
S=C(NCCN1CCCCC1)Nc1ccccc1,-35,95,84,102
Cc1ccc(-n2c(=O)c3sccc3n(CC(=O)c3ccc(Br)cc3)c2=O)cc1F,.,156,76,97
CC(C)Cn1cnc2c1c(=O)n(CC(=O)NCC(F)(F)F)c(=O)n2Cc1ccccc1,-34,111,93,.
O=C(Nc1ccccc1)Nc1ccc2nnsc2c1,6,2.4*,2.7*,98
CCC(Cn1nnc2ccccc2c1=O)NC(=O)Nc1ccc(C)c(C)c1 (stereo unspecified),11,97,87,103
CCCCN(Cc1ccco1)C(=O)Cn1ncc2c([nH]c3ccccc32)c1=O,.,114,105,108
COc1ccc(C(=O)NCCc2csc3nc(-c4cccc(F)c4)nn23)cc1OC,-18,.,.,98
CCCNC(=O)C1CCC(CNS(=O)(=O)c2cccc3nsnc23)CC1 (stereo unspecified),.,85,87,103
CN(C(=O)C(C)(C)C)C1CC2C=CC1C2 (stereo unspecified),-1,96,105,105
CCOc1cc(C)c(Cl)cc1S(=O)(=O)N1CCN(C)CC1,4,99,79,103
O=C1CCC(C(=O)OCc2ccc(Br)cc2)=NN1,-16,96,96,.
CCCCOc1ccccc1C(=O)NCc1csc(-c2ccc(OC)cc2)n1,-26,.,.,101
CCn1c2ccccc2c2cc(CNCCO)ccc21,.,119,73,102
COc1cc(-c2nnc(SCC(=O)c3ccco3)n2C)cc(OC)c1OC,8,105,97,96
COCCn1c(SCC(N)=O)nc2sc3c(c2c1=O)CCCC3,-22,102,95,.
O=C(NC1CCCC1)C(c1ccncc1)N(Cc1cccs1)C(=O)c1csnn1 (stereo unspecified),-10,111,75,.
O=C(OCN1C(=O)c2ccccc2C1=O)c1cccc(OC(F)F)c1,-5,94,91,.
CCCCn1c(=NC(=O)C(C)(C)C)c(C(=O)OCC)cc2c(=O)n3ccccc3nc21,.,81,84,98
Fc1ccc(CN(C2=NCCN2)c2c(Cl)cccc2Cl)cc1,-8,.,.,102
COc1cc(C2NC(C(=O)O)Cc3c2[nH]c2ccccc32)cc(OC)c1OC (stereo unspecified),-2,.,.,106
CCOc1ccc(NC(=O)C2CCN(c3nnc(C)c4c(C)n(-c5ccccc5)nc34)CC2)cc1,.,112,85,102
COc1cc(NS(=O)(=O)c2cc3c(cc2C)n(C)c(=O)c(=O)n3C)cc(OC)c1,.,63,66,104
CC1C(=O)CCNC1c1ccccc1 (stereo unspecified),-23,61,71,104
O=C(Nc1ccc(N2CCOCC2)cc1)Nc1ccc2snnc2c1,-27,.,.,108
COc1ccc(NC(=O)C(=O)NCCc2csc(-c3ccc(Cl)cc3)n2)cc1,.,99,91,104

Bioassay records (PubChem)
